YopH inh = inhibitors of Yersinia enterocolitica YopH tyrosine phosphatase; fluorescence Ex485/Em525; inhibition, %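 (about 10 µM by stock and volumes)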; 0.16% of 140,000 active; AID 898;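 active = inhibition of 50% or more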;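 note: controls were vehicle for no effect and minimum signal wells for full effect; inactives centre near -20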
Mtb bLac sens = beta-lactam sensitization of Mtb H37Rv; M. tuberculosis H37Rv growth with meropenem, percent inhibition; hits of this screen are not shown here; inhibition, % at 25 µM; 0.27% of 330,000 active; AID 434955;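 active = about 74% or more and at least 40 points above the plate without the antibiotic, then above 30% in a dose series; inconclusive = first-round hits that could not be retested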;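 note: growth measured after seven days incubation then overnight dye step; 0% = bacteria only wells and 100% = bacteria with antibiotic; twin plates without the antibiotic show which effects depend on it; some results filed as inactive read as strong as hits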
Arbovirus inh = antivirals against arbovirus infection; arbovirus infection cell-based antiviral screen; inhibition, % at 10 µM; 0.37% of 200,000 active; AID 1251;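 active = inhibition from about 30%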;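 note: bluetongue infection of BSR cells; cell survival read as ATP light after 72 h; 0% = infected wells without compound and 100% = uninfected wells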
Mtb growth = M. tuberculosis H37Rv growth inhibitors, H37Rv strain (AID 1626). M. tuberculosis H37Rv growth inhibition; higher % means a stronger effect. one-dose inhibition, % at 10 µM; IC50 in µM for titrated hits. 0.95% of 220,000 active;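 active = confirmed in a dose series; inconclusive = inhibition above 80% but not taken into the dose series; inactive = below 80% or under 30% at every dose of the series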;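 note: bacteria incubated seven days before Alamar blue readout; 0% = bacteria only wells and 100% = bacteria with antibiotic wells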
RecA intein inh = Mtb RecA intein splicing inhibition. P9WHJ3. cell-free RecA intein splicing, fluorescence. inhibition, %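 (about 9 µM by stock and volumes)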. 0.75% of 290,000 active. AID 2221; in the data active = inhibition above about 30%; inconclusive = no clear call, values can overlap the other calls;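 note: 0% = vehicle wells and 100% = reference inhibitor control wells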
Target sequence (P9WHJ3 whole entry, looked up): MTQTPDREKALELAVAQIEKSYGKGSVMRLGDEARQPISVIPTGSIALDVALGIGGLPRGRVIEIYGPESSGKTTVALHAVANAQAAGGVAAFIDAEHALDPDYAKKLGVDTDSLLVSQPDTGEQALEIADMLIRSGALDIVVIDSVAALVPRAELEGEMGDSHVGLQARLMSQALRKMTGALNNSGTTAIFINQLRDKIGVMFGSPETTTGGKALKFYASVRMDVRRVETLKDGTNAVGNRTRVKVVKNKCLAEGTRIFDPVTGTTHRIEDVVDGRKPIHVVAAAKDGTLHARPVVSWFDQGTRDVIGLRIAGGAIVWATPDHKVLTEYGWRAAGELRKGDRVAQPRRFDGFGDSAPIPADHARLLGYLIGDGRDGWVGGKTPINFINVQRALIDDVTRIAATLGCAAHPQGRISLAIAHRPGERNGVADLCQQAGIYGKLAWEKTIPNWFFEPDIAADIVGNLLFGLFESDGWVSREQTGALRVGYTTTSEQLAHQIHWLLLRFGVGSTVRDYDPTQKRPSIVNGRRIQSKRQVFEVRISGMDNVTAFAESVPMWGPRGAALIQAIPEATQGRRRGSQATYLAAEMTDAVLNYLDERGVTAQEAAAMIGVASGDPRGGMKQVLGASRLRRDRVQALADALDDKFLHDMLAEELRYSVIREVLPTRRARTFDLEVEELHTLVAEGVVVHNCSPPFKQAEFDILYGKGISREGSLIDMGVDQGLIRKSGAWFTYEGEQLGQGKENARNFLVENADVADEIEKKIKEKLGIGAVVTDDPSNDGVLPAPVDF
Arbovirus inh repeat = further read-out of Arbovirus inh, marked with its call; inhibition, %; measured here: 10K subset replicate screen; many hits read low in the repeat;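 first of two repeat runs on a subset; 0% = infected and 100% = uninfected wells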
* = called active by the depositor; ? = inconclusive; . = no result given. These rows are one share of the data, so the mix of outcomes need not match the whole.

Sample of the layout, 7 compounds:
SMILES	YopH inh	Mtb bLac sens	Arbovirus inh	Mtb growth	RecA intein inh	others
CCOc1ccc(Br)cc1C(=O)N/N=C/c1ccc([N+](=O)[O-])cc1	.	4	12	5%	-1.1
Cc1cccc(N(C(=O)c2csnn2)C(C(=O)NC2CCCCC2)c2ccccn2)c1C (configuration not stated)	.	17	.	.	-3.3
CCOc1ccccc1Oc1cn[nH]c1-c1ccc(OC)cc1O	-12	-2	-3	-6%	5.5
CC1CCCN(S(=O)(=O)c2ccc(S(=O)(=O)N3CCCC3)cc2)C1 (configuration not stated)	.	-2	.	.	-0.6
CCC(=O)Nc1cccc(-c2cn3cccc(C)c3n2)c1	.	1	.	4%	0.3
CCc1ccc(NC(=O)COn2nnc3ccc(S(=O)(=O)N(C)C)cc32)cc1	-2	-11	3	1%	1.7
Cn1c(N)c(N=O)c(=O)n(C)c1=O	.	-7	.	-1%	4.8

The listing, repeating the preview:
SMILES	YopH inh	Mtb bLac sens	Arbovirus inh	Mtb growth	RecA intein inh	others
CCOc1ccc(Br)cc1C(=O)N/N=C/c1ccc([N+](=O)[O-])cc1	.	4	12	5%	-1.1
Cc1cccc(N(C(=O)c2csnn2)C(C(=O)NC2CCCCC2)c2ccccn2)c1C (configuration not stated)	.	17	.	.	-3.3
CCOc1ccccc1Oc1cn[nH]c1-c1ccc(OC)cc1O	-12	-2	-3	-6%	5.5
CC1CCCN(S(=O)(=O)c2ccc(S(=O)(=O)N3CCCC3)cc2)C1 (configuration not stated)	.	-2	.	.	-0.6
CCC(=O)Nc1cccc(-c2cn3cccc(C)c3n2)c1	.	1	.	4%	0.3
CCc1ccc(NC(=O)COn2nnc3ccc(S(=O)(=O)N(C)C)cc32)cc1	-2	-11	3	1%	1.7
Cn1c(N)c(N=O)c(=O)n(C)c1=O	.	-7	.	-1%	4.8
N#Cc1cnn(-c2ccc(F)cc2)c1N	.	-11	.	10%	0.2
CCOc1ccc(S(=O)(=O)N2CCN(S(=O)(=O)c3ccc(OCC)cc3)C(C)C2)cc1 (configuration not stated)	-25	2	-3	-3%	0.0	Arbovirus inh repeat=1
Cc1nn(CCN)c(C)c1Cl	.	-1	4	-10%	.
COC(=O)c1ccc(CNC(=O)Cn2nnnc2CN(C)C(C)C)cc1	.	-4	.	.	-0.1
O=C1C2CCCN2C(=O)N1CCCN1CCN(c2cccc(Br)c2)CC1 (configuration not stated)	.	-2	.	.	-1.2
CCOC(=O)c1nn(-c2c(C)n(C)n(-c3ccccc3)c2=O)cc1O	-5	6	-2	-3%	-1.5
Cc1ccc(/C=N/N=C2\SCC(=O)N2CC2CC2)cc1	.	2	.	-3%	0.6
CC(C)n1cc(/C=C2/SC(=O)N(CC(=O)N3CCCC3)C2=O)c2ccccc21	-14	2	-5	-5%	2.5
COc1cccc2cc(/C(C)=N/NC(=O)c3ccco3)oc12	.	7	-9	-5%	.
O=C(O)CSc1c(-c2cccs2)[nH]c2ccccc12	-9	-4	-12	8%	-0.7
COCn1c(=O)c2c(nc(SC3=NCCS3)n2Cc2ccccc2C)n(COC)c1=O	-27	40	-18	17%	14
CCc1c(C)nc(SCc2cccnc2)[nH]c1=O	.	?	.	.	4.7
O=C(N/N=C/C1C(c2ccccc2)C1(Cl)Cl)c1cccc(Br)c1 (configuration not stated)	-3	83	-13	3%	0.7
O=C(NCc1nnnn1-c1ccc(F)c(F)c1)c1cc2ccccc2o1	.	-5	.	.	-1.6
Cc1cnc(C(=O)Nc2ccc(C(C)C)cc2)cn1	.	9	-12	14%	3.0
O=C(O)CN(Cc1ccccc1)S(=O)(=O)c1ccc(F)cc1	-48	-6	4	-2%	.
Cc1ccccc1-c1coc2cc(O)ccc2c1=O	8	-4	6	0%	-2.5
COc1ccc(/C=C/C(=O)Nc2sc(Cc3ccccc3)c(C)c2C(N)=O)cc1	-10	2	-4	2%	-0.1
CC(=O)OCCN(Cc1ccccc1)Cc1ccc2c(c1)OCO2	-26	10	-5	-3%	5.7
CCCc1cc(=O)oc2cc(OCC(=O)NCCCn3ccnc3)ccc12	.	-3	.	.	-0.7
Nc1nc(SCC(=O)NNc2c(Cl)cc(Cl)cc2Cl)n[nH]1	-12	4	-6	4%	-5.0
COc1ccc([N+](=O)[O-])cc1NC(=O)C(C)OC(=O)c1cccnc1Cl (configuration not stated)	.	9	3	-2%	-5.2
CCc1nnc(NC(=O)CC(C)c2ccccc2)s1 (configuration not stated)	.	-10	.	.	0.1
COCCCNC(=O)CCCn1c(=O)c2ccccc2n(CC(=O)Nc2c(C)cc(C)cc2C)c1=O	-29	4	5	-4%	-0.4
Cc1ccc(C(=O)OCC(=O)Nc2ccccc2Sc2ccccc2)cc1C	-15	9	-2	3%	-1.2
O=C1CC(=O)N(CCc2ccc(F)cc2)C(=O)N1	-9	-4	4	3%	5.1
CCOc1ccc(C(=O)Nc2ccc(-c3nc4ccccc4[nH]3)cc2)cc1[N+](=O)[O-]	-8	4	-9	-5%	-2.1
CCn1cnc2cc([N+](=O)[O-])ccc21	.	1	16	-9%	1.9
CCOC(=O)c1sc(NC(=O)C(C)C)c(C#N)c1C	.	5	-6	-6%	.
CC1(C)NC(=O)N(CC(=O)O)C1=O	-20	10	0	2%	-2.0
O=C(N/N=C/c1cc([N+](=O)[O-])ccc1O)c1cc(-c2ccccc2)nc2ccccc12	-2	-2	-24	?	14
CCOc1ccc(CCNC(=O)COC(=O)Cn2nc(C)c([N+](=O)[O-])c2C)cc1OCC	.	-8	.	.	1.8
Cc1ccc(C2SCC(=O)Nc3c2c(=O)[nH]n3C2CCOC(C)(C)C2)cc1 (configuration not stated)	1	-3	2	0%	-0.3
Nc1nc(NC(=O)/C=C/c2ccc(F)cc2)nn1-c1ccccc1	.	4	.	1%	0.5
CCOc1ccc(NC(=O)Nc2cc(C)ccc2F)cc1	-17	-1	-7	-2%	-1.2
Cc1c(C(=O)NC(C)C)oc2c1-c1[nH]ncc1CC2	-36	2	6	12%	0.3
CC(c1ccco1)N(C(=O)C12CC3CC(CC(C)(C3)C1)C2)c1ccccn1 (configuration not stated)	-15	-4	1	5%	4.4
COC(=O)COc1ccc(C(=O)OC)cc1	20	96	3	-8%	-0.4
COc1ccc(OCC(O)COc2ccc(C(=O)O)cc2)cc1 (configuration not stated)	-36	0	-10	-3%	-1.5
O=c1cc(O)c2c(=O)[nH]c(=O)n(-c3ccccc3)c2[nH]1	-39	5	5	-2%	1.6
O=C(COC(=O)c1ccccn1)Nc1nccs1	-51	?	-5	-5%	-0.9
CN1CCN(NC(=O)c2ccc(Br)s2)CC1	.	5	.	-6%	-1.1
CCOC(=O)c1[nH]c2ccc(OCC)cc2c1NC(=O)CN1CCC2(CC1)OCCO2	-29	-9	-5	2%	0.3
Further compounds follow.
SMILES	YopH inh	Mtb bLac sens	Arbovirus inh	Mtb growth	RecA intein inh	others
Cc1ccc(COc2ccsc2C(=O)O)cc1	.	.	2	-3%	.
COc1cc(/C=N/NC(=O)c2cc(C)oc2C)cc(OC)c1OC	.	2	-5	2%	-2.6
COc1cc(/C=N/NC(=O)CSc2ccccn2)ccc1O	.	-7	.	-5%	-2.6
Cc1cc(Cl)ccc1NC(=O)CSc1nnc(-c2ccncc2)n1Cc1ccco1	-28	-13	5	3%	.	Arbovirus inh repeat=-3
C=CCc1cccc2ccc(=O)oc12	-34	-10	-4	-4%	-3.8
CCOC(=O)C1=NN(C(=O)Cc2ccccc2)C(O)(c2ccc(Cl)cc2)C1 (configuration not stated)	-35	-7	3	-11%	3.1
O=C(Nc1nc2n(n1)C(c1ccccc1)CC(c1ccc(Cl)cc1)N2)c1ccco1 (configuration not stated)	-49	-9	-18	3%	2.0
CC(=O)N(Cc1ccco1)Cc1cc2cccc(C)c2n2nnnc12	.	-4	14	2%	-7.1
COc1ccc(C(=O)Nc2ccc(OCC(F)(F)C(F)F)c(C(F)(F)F)c2)cc1OC	-36	-2	-36	24%	17
CCOc1ccc(CCNC(=O)c2cc(-c3ccccc3)c(N3CCOCC3)s2)cc1OCC	.	-4	.	.	3.6
COc1cc(/C=C2\SC(=S)N(C(C(=O)O)c3ccccc3)C2=O)ccc1O (configuration not stated)	.	18	.	5%	12
CC(=O)N1CCOc2ccc(S(=O)(=O)NC(C)c3ccccc3)cc21 (configuration not stated)	.	1	.	.	0.2
COc1cccc(/C=N/NC(=O)CNC(=O)c2ccc3c(c2)OCCO3)c1O	-32	-2	-10	-9%	-1.5
Cc1ccc(NC(=O)COC(=O)CC2CCCC2)cc1Cl	.	87	5	>100µM*	5.2
CCC(=O)Nc1ccc(Cl)c(NC(=O)c2c(OC)cccc2OC)c1	.	-8	-2	6%	2.0
O=C(CN(Cc1ccco1)C(=O)CCC(=O)Nc1nccs1)NCc1ccccc1	-20	-7	3	-1%	-2.3
CCC(Oc1ccccc1)C(=O)Nc1ccccc1N1CCCCC1 (configuration not stated)	.	1	.	.	18
CCCCCC(=O)Nc1nc(C)c(-c2csc(Nc3ccccc3OCC)n2)s1	-13	99	-13	-5%	1.9
CN1C(=O)/C(=C/c2ccccc2OCc2ccccc2)NC1=S	-24	11	1	21%	-0.2
Cc1cccc(CC(=O)NCCn2c(C)cc3ccccc32)c1	.	2	10	10%	2.4
COc1ccc(OCC(=O)N2CCN(C(=O)c3ccc([N+](=O)[O-])cc3)CC2)cc1	.	-4	-1	-4%	0.4
C=CC(=O)NCC1OCCc2ccccc21 (configuration not stated)	.	2	-1	-7%	0.3
COc1cccc(NC(=O)NCCCN2CCN(c3ccc(F)cc3)CC2)c1	-26	97	-1	13%	2.0
CCN(CC)S(=O)(=O)c1ccc(NC(=O)CN(c2cccc(F)c2)S(C)(=O)=O)cc1	26	-4	-4	-12%	1.4
c1ccc(N(c2ccccc2)c2nc(N3CCCC3)nc(-n3ccnc3)n2)cc1	-5	96	-12	.	0.5
Cc1ccc(/C=C/c2nc3ccccc3c(=O)n2CCc2ccccc2)cc1	-17	3	-5	3%	-3.2
CCN(CC)CCCNC(=O)CN1N=C(c2ccc(OC)cc2)CCC1=O	.	2	.	.	0.9
Cc1ccc(NC(=O)c2nc(S(=O)(=O)Cc3ccccc3C)ncc2Cl)cc1C	.	20	.	.	39*
O=C(COc1cccnc1[N+](=O)[O-])NCc1ccc2c(c1)OCO2	.	-2	.	2%	-18
O=C(c1cc2cc3ccc(Cl)cc3nc2o1)N1CCCCCC1	.	9	.	.	1.4
O=C(CSc1nnnn1-c1ccccc1)N1CCN(C(=O)c2ccco2)CC1	-53	-4	-3	-5%	-1.0
COc1ccc(/C(C)=N/OCC(=O)N2CC3(C)CC2CC(C)(C)C3)cc1 (configuration not stated)	8	-4	7	11%	13
CN(CC(=O)Nc1cccc(F)c1)C(=O)c1cccc(S(=O)(=O)N2CCN(c3ccccc3)CC2)c1	.	-6	.	.	5.5
CC1=CC(c2ccccc2)n2nc(NC(=O)CCC(=O)O)nc2N1 (configuration not stated)	.	-3	.	-4%	-20
COc1ccc(Cc2nnc(NC(=O)CS(=O)(=O)Cc3ccccc3)s2)cc1	.	-4	.	.	0.0
Cc1ccccc1CN1C(=O)C(O)(CC(=O)c2ccncc2)c2ccccc21 (configuration not stated)	-37	47	-4	4%	-0.7	Arbovirus inh repeat=-3
CC(C)(C)c1nnc(NC(=O)CCn2cnc3ccccc3c2=O)s1	.	5	-2	-6%	21
COc1ccc(CCNc2oc(COc3ccc(F)cc3)nc2C#N)cc1	-18	1	-9	13%	.
O=C(c1ccccc1)c1c(O)nc(-c2ccccc2)n(-c2ccccc2)c1=O	-32	10	2	1%	0.6
CC(C)C[C@@H](NC(=O)C1CCC(CNC(=O)[C@@H]2CCCN2C(=O)OC(C)(C)C)CC1)C(=O)O (some centres not stated)	.	4	.	.	-3.4
CCN(c1ccccc1)S(=O)(=O)c1ccc(C(=O)N(CCCN(C)C)c2nc3cc4c(cc3s2)OCO4)cc1	.	74	.	.	4.3
N#C/C(=C\c1cccs1)C(=O)c1ccccc1Cl	.	9	.	-4%	-1.9
CC(=O)Oc1ccccc1N1C(=O)c2ccc(C(=O)O)cc2C1=O	-46	19	6	-2%	-3.7
Cc1ccc(-c2n[nH]c(=S)n2/N=C/c2cc3c(cc2[N+](=O)[O-])OCO3)cc1	-1	11	2	3%	-1.3
O=C(NC(=S)NC1CCCc2ccccc21)c1ccc(F)cc1 (configuration not stated)	.	13	.	.	18
COc1ccc(N2CCN(C(=O)c3ccc(NC(=O)C4=CSCCO4)cc3)CC2)cc1	.	-3	.	.	-2.5
CC(=O)Nc1cc(NC(C)=O)c(N=Nc2ccccc2)cc1C	.	-8	.	-2%	2.2
